B2AR ag = activates human beta-2 adrenergic receptor causing internalization; Am2.2-beta2AR cells, FAP receptor internalization, flow cytometry; reference of the scale not given here; response, % (test concentration not listed); P07550; AID 504454; 340,000 compounds, 0.43% hits;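 active = response above a set limit, near 3 SD of response in nonfluorescent compounds, cut at about 42% in these data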;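 note: stock transfer was 100 nL into about 11 µL; a reference agonist was the positive control; negative values mostly stem from fluorescent compounds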
Target sequence (P07550 whole entry, looked up): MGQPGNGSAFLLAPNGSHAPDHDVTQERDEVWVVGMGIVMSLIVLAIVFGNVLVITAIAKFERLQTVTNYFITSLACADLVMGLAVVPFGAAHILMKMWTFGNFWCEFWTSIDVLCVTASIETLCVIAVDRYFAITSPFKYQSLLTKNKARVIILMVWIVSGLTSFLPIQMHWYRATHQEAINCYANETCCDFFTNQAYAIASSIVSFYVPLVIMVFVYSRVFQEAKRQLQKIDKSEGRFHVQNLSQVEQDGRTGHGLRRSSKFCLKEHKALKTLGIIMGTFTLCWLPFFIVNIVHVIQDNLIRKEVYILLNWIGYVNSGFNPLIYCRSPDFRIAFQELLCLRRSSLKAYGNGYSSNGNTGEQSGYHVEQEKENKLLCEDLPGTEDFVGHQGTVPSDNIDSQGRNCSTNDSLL
E coli growth = blocks Escherichia coli growth. OD600, 23 h; active compounds read low. AID 1053175. OD600 absorbance (test concentration not listed). 330,000 compounds, 0.21% hits;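 active = OD600 absorbance below the run mean of sample wells minus 3.6 SD, in any replicate, cut at about 0.56 in these data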;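 note: stock transfer was 300 nL into about 60 µL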
HNF4A DNA FP = change in binding of human HNF4 alpha to DNA; P41235; HNF4a-FITC DNA binding, fluorescence polarization, 1 h; activity change, % at 10 µM; 360,000 compounds, 0.3% hits; AID 1224865; in the data active = activity change above about 30%, passing the limit was not always enough;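 note: controls were the assay level and a saturating level of protein; the project sought stronger binding though the title names inhibitors; some compounds called inactive have numbers as strong as hits; positive values seem to mean higher polarization but the record does not say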
UCH37 DUB inh = human UCH37 deubiquitinating enzyme inhibition; Q9Y5K5; purified proteasome/UCH37, Ub-AMC cleavage fluorescence; inhibition, % (concentration not given with the values); 330,000 compounds, 0.33% hits;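 active = mean of two replicates above 20%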;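 note: 0% = compound-free wells with enzyme and 100% = wells lacking proteasome; stock transfer was 100 nL into about 20 µL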
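Test system – human UCH37 enzyme supplied as purified proteasome complex · Incubation – 30 min preincubation with enzyme, 25 min cleavage at room temperature · Detection – AMC fluorescence from Ub-AMC cleavage, excitation 355 nm, emission 460 nm · Benchmarks – no-proteasome wells (full inhibition) and compound-free wells (no inhibition)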
Ecoli rRNA inh = selective bacterial rRNA inhibition in E. coli; E. coli WT GFP vs humanized-ribosome RFP mutants, fluorescence, 24 h; active compounds read low; DMSO median 0, no signal -100; GFP signal change (wild-type ribosome), % (concentration not given with the values); 350,000 compounds, 1.6% hits;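 active = significant combined selectivity score with lowered wild-type GFP, culture density cut under 30%, mutant RFP and density less affected; inactive = any of these conditions unmet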; note: one replicate is shown; some compounds called inactive have numbers as strong as hits
FGF22 binding = FGF22 (human) thermal shift binding. Q9HCT0. recombinant FGF22 thermal shift, SYPRO orange fluorescence; percent of sucrose octasulfate shift, DMSO zero. calls only at 9.99 µM. 340,000 compounds, 1.5% hits;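 active = melting point raised past a set limit in the mean and every replicate; three in four hits are not shown here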
Target sequence (Q9HCT0 whole entry, looked up): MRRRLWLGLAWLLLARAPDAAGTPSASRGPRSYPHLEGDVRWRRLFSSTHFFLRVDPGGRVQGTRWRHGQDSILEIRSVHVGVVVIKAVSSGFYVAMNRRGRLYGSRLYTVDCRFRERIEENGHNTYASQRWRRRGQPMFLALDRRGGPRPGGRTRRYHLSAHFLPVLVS
ALR H2O2 inh = human ALR oxidase inhibition via reduced H2O2. purified ALR, DTT oxidation, H2O2 HRP-luminol luminescence. 290,000 compounds, 3.8% hits. P55789. inhibition, % (no concentration beside the values);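 active = mean and each replicate at 75% or more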;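 note: stock transfer was 7.5 nL into about 7.5 µL; 0% = neutral wells and 100% = wells with inactivated enzyme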
Target sequence (P55789 whole entry, looked up): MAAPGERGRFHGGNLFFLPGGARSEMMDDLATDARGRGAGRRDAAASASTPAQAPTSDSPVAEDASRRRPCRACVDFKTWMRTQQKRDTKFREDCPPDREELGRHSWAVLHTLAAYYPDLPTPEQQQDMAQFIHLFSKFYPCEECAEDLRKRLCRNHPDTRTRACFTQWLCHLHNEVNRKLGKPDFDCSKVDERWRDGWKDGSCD
Ecoli rRNA inh OD600 = also measured in Ecoli rRNA inh; calls as there; OD600 change, %; measured here: OD600 growth;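 optical density of the mix in the first replicate; 0 = DMSO median and -100 = no signal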
Ecoli rRNA inh RFP = also measured in Ecoli rRNA inh; calls as there; RFP signal change, %; measured here: RFP humanized mutant strains;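 first replicate; 0 = DMSO median and -100 = no signal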
Numbers without * were called inactive; i = inactive; . = not tested or not shown. These rows are one share of the data (hit frequency here may not be typical).

SMILES	B2AR ag	E coli growth	HNF4A DNA FP	UCH37 DUB inh	Ecoli rRNA inh	Ecoli rRNA inh OD600	Ecoli rRNA inh RFP	FGF22 binding	ALR H2O2 inh
CCOc1ccc(-c2nnc(NC(=O)C3CCCC3)o2)cc1	-4	0.64	-0.9	3.9	1	0	0.8	i	0
CCOc1ccc(-n2c(SCc3ccc([N+](=O)[O-])cc3)nnc2-c2ccc(OC)cc2)cc1	-10	.	-2.2	.	2	-7	-0.7	i	-5
CCOC(=O)N1CCN(C(c2cccc(OC)c2)c2sc3nc(C)nn3c2O)CC1 (stereo unspecified)	-5	0.73	-0.2	1.1	.	.	.	.	-1
CCOc1ccc(OCCC(=O)NNC(=O)c2nn(C)c(=O)c3ccccc23)cc1	5	0.69	-1.1	0.2	2	1	2.9	i	-4
Cc1cccc(C)c1NC(=S)N(CCCN1CCN(C)CC1)Cc1cccs1	-1	0.7	-1.4	0.5	6	2	-1.7	i	2
O=C(CCNC(=O)c1ccc([N+](=O)[O-])cc1)Nc1cc(Cl)ccc1N1CCOCC1	-5	0.69	-0.7	2.4	1	5	0.5	i	-9
CCCCOC(=O)CCCN1C(=O)/C(=C2\SC(=S)N(CCCC(=O)OCCCC)C2=O)SC1=S	10	0.63	0.9	11	13	8	1.1	i	-9
COc1ccc(C)cc1NC(=O)CCS(=O)(=O)c1ccc2c(c1)oc(=O)n2C	7	0.64	-3.4	-0.9	2	1	0.8	i	-2
Cc1ccsc1/C=N\NC(=O)c1cc(C(C)(C)C)[nH]n1	16	.	1.2	.	-9	0	-1.8	i	89*
CCOC(=O)CSc1nnc(CNC(=O)c2cc(OC)c(OC)c(OC)c2)n1C	1	0.63	-0.8	5.8	13	1	-6.2	i	-6
O=C(O)CCC(=O)N1CCc2cc(S(=O)(=O)N3CCC(Cc4ccccc4)CC3)ccc21	2	0.75	-0.4	3.2	-32	-33	-2.7	i	9
COc1cccc(CC2(CO)CCCN(Cc3ccccc3Cl)C2)c1 (stereo unspecified)	-3	0.68	-3.2	1.4	-15	-14	-4.8	i	-2

Exported as labelled records: entries from further up.
> CCOc1ccc(-n2c(SCc3ccc([N+](=O)[O-])cc3)nnc2-c2ccc(OC)cc2)cc1
  B2AR ag: -10; E coli growth: .; HNF4A DNA FP: -2.2; UCH37 DUB inh: .; Ecoli rRNA inh: 2; Ecoli rRNA inh OD600: -7; Ecoli rRNA inh RFP: -0.7; FGF22 binding: i; ALR H2O2 inh: -5

> CCOC(=O)N1CCN(C(c2cccc(OC)c2)c2sc3nc(C)nn3c2O)CC1 (stereo unspecified)
  B2AR ag: -5; E coli growth: 0.73; HNF4A DNA FP: -0.2; UCH37 DUB inh: 1.1; Ecoli rRNA inh: .; Ecoli rRNA inh OD600: .; Ecoli rRNA inh RFP: .; FGF22 binding: .; ALR H2O2 inh: -1

> CCOc1ccc(OCCC(=O)NNC(=O)c2nn(C)c(=O)c3ccccc23)cc1
  B2AR ag: 5; E coli growth: 0.69; HNF4A DNA FP: -1.1; UCH37 DUB inh: 0.2; Ecoli rRNA inh: 2; Ecoli rRNA inh OD600: 1; Ecoli rRNA inh RFP: 2.9; FGF22 binding: i; ALR H2O2 inh: -4

The list continues.
SMILES	B2AR ag	E coli growth	HNF4A DNA FP	UCH37 DUB inh	Ecoli rRNA inh	Ecoli rRNA inh OD600	Ecoli rRNA inh RFP	FGF22 binding	ALR H2O2 inh
COc1ccc(OC2C(=O)N(Cc3ccc(F)cc3)C2c2cc(OC)c(OC)c(OC)c2)cc1 (stereo unspecified)	-12	0.69	-1.8	3.8	.	.	.	.	0
COC(=O)c1ccc(NC(=O)CCN2C(=O)C3C4CCC(C4)C3C2=O)cc1 (stereo unspecified)	1	0.66	3.0	-1.3	5	12	-3.3	i	-2
Cc1cc(C(=O)COC(=O)CNC(=O)c2ccc(Cl)c(Cl)c2)c(C)n1Cc1ccco1	18	0.7	0.3	2.0	8	4	2.8	i	2
C/C(=N/NS(=O)(=O)c1ccc(C)cc1)c1c(O)c2ccccc2oc1=O	6	.	-6.1	.	1	-3	2.3	i	.
CCCCc1ccc(NC(=O)C2CCCC2)cc1	5	0.67	-0.7	1.2	1	-7	-6.4	i	9
COC(=O)c1c(C)oc(C)c1S(=O)(=O)N(C)C1CCCCC1	2	0.66	-0.3	0.1	-26	-23	1.0	i	-9
CC(C)(C)NC(=O)c1ccc2c(c1)C(=O)N(Cc1ccco1)C2=O	1	0.63	-1.0	3.1	8	8	-1.8	i	-6
COc1nc(OC)nc(Oc2ccc(Cl)cc2[N+](=O)[O-])n1	0	0.68	0.7	0.9	6	15	-1.4	i	13
CC1CC(C)(C)NC(=S)N1CCC(=O)NCCc1ccc(Cl)cc1 (stereo unspecified)	4	0.71	-0.1	2.9	0	5	-1.4	i	-3
CC(C)c1ccc(N(CC(=O)NC2CCCCC2)C(=O)CCC(=O)Nc2ccccn2)cc1	3	0.68	2.8	5.8	6	10	2.5	i	-5
COc1ccc(CN(CCC(c2ccc(F)cc2)C2CCOC(C)(C)C2)C(=O)c2ccco2)cc1 (stereo unspecified)	0	0.72	0.5	6.1	-1	2	0.2	i	-1
Nc1nc(Sc2ccc(C(F)(F)F)cn2)n[nH]1	-5	0.69	1.4	0.1	15	10	-1.5	.	-8
CCOc1ccccc1CNCc1ccc(C(=O)O)cc1	-3	0.68	3.2	-1.4	4	4	-0.9	i	.
CCn1c(=O)cc(OCC(=O)Nc2cc(C)ccn2)c2ccccc21	-9	0.7	0.7	0.9	.	.	.	.	-4
C=CCN1C(=O)c2ccccc2Sc2ccc(C(=O)N3CCN(C)CC3)cc21	0	0.76	0.8	-1.6	.	.	.	.	-5
O=C1CN(C(=O)c2cc3ccccc3oc2=O)C(c2ccccc2)c2cc(F)ccc2N1 (stereo unspecified)	-17	0.7	-1.2	-1.3	1	-6	3.3	i	-12
Oc1ccc2ccccc2c1CNc1ccc(Br)cn1	-1	0.69	1.8	4.3	-3	5	2.3	.	-107
CC(=O)/C(=N\Nc1ccccc1)Sc1nnc(-c2ccccc2)n1-c1ccccc1	-16	.	-1.9	.	.	.	.	.	2
CC1CCN(C(=O)CSCC(=O)Nc2nc(-c3cccs3)cs2)CC1	4	0.72	0.4	0.5	9	-39	-3.6	i	98*
CC(Sc1nnnn1C)C(=O)Nc1ccccc1 (stereo unspecified)	4	0.69	4.9	2.4	6	8	1.2	i	2
CCCN(CCO)Cc1ccc(Cl)c(Cl)c1	7	0.6	-6.5	1.6	.	.	.	.	-3
CCOc1ccc(NC(=O)N2CCN(S(C)(=O)=O)CC2)cc1	9	0.67	-1.1	0.9	7	10	-2.5	i	-14
COc1cc(CN2C(=O)C(C)ON=C2c2cccs2)cc(OC)c1 (stereo unspecified)	.	.	-1.2	.	-12	-5	-6.1	i	.
Cc1ccc(S(=O)(=O)N2CCOCC2)cc1NC(=O)COC(=O)C1(C)CC1(Cl)Cl (stereo unspecified)	-1	0.69	2.1	1.6	-1	-5	-3.6	i	.
CC1(C)CC(=O)c2c(O)cc(OCc3ccc([N+](=O)[O-])cc3)cc2O1	-5	0.63	4.7	2.6	.	.	.	.	-6
CCOC(=O)c1cc(S(=O)(=O)NC2CCC(C)CC2)cn1C (stereo unspecified)	2	0.63	0.1	1.0	-1	-4	2.7	i	-7
CCC(C)(C)NC(=O)C(c1ccco1)N(C(=O)CNC(=O)c1cccs1)c1cccnc1 (stereo unspecified)	2	0.7	1.8	3.2	.	.	.	.	-2
CSC1=NSC2=NC(=O)/C(=C/c3coc4ccccc4c3=O)C(=N)N12	-4	0.69	42	-16	-4	-3	20	i	98*
Cc1ccccc1C(=O)NCC(=O)NNC(=O)CCN1CCN(c2ccccc2)CC1	7	0.7	-0.3	5.8	14	5	1.3	i	3
COc1ccc(OC)c(NC(=O)CN(c2ccc(C)cc2)S(=O)(=O)c2c(C)n[nH]c2C)c1	7	0.65	0.3	5.2	-14	-30	-0.5	i	-4
Cc1nn(CC(=O)NNC(=S)NCC2CCCO2)c(C)c1Br (stereo unspecified)	14	0.7	-2.3	0.3	10	10	2.3	i	21
COc1ccccc1N1CCN(C(=O)CSc2nnc(NC(=O)C(C)C)s2)CC1	5	0.73	1.5	4.2	1	1	-1.1	i	54
CC(C)c1nc2n[nH]c(N)c2c2c1CCCC2	0	0.65	1.2	1.1	.	.	.	.	21
Cc1noc(C)c1COC(=O)c1cnc(Cl)c(Cl)c1	9	0.67	-1.6	-1.2	-7	-9	-7.6	i	9
Cc1ccc(O)c(NC(=O)CSc2n[nH]c(-c3ccccc3)n2)c1	-1	0.64	0.9	5.7	3	-22	3.1	i	8
O=C(N1CCOCC1)N1CCN(S(=O)(=O)N2CCOCC2)CC1	11	0.7	-2.5	1.8	.	.	.	.	-15
CCN1CCc2nc(N)sc2C1	-7	0.72	2.1	1.3	5	0	-3.8	i	-1
O=c1cc(CSc2ccc(Cl)cc2)nc(-c2ccccc2)[nH]1	-3	0.71	1.4	2.5	9	0	-4.9	.	-1
O=C(COC(=O)c1cccnc1Cl)Nc1ccccc1OC(F)F	-4	0.68	0.5	1.6	-3	-2	2.0	i	-4
O=C(Nc1cccc(-c2ccc(N3CCOCC3)nn2)c1)c1cccc(Cl)c1	.	.	4.3	.	-3	-3	-4.0	i	.
O=S(=O)(Nc1ccc(S(=O)(=O)N2CCCCCC2)cc1)c1cccs1	9	0.67	1.9	0.5	-17	-16	-14	i	-5
Cc1ccc(NS(=O)(=O)c2ccc3c(c2)n(C)c(=O)c(=O)n3C)c(C)c1	-9	0.68	-0.3	5.5	-1	-2	-3.5	i	1
CCS(=O)(=O)N1CCN(C(=O)c2ccc3nc(C)c(N(C)C(=O)CCc4ccccc4)n3c2)CC1	.	.	3.4	.	2	-1	1.7	i	.
Cc1ccc(OCCN2C(=O)CSC2=O)cc1	-5	0.72	4.6	3.8	.	.	.	.	-2
Cn1cc(CN2CCCC(CO)(Cc3cccc(Cl)c3)C2)cn1 (stereo unspecified)	0	0.65	1.3	5.2	12	4	-3.7	i	.
N#CC1C(=O)NC(=O)CC12CCCCC2 (stereo unspecified)	1	0.67	-0.5	1.3	.	.	.	i	.
COc1ccccc1NC(=O)CSc1ccc(-c2ccc(-n3cccn3)cc2)nn1	14	0.7	3.2	3.1	-1	-1	2.5	i	-6
O=C(C1CCCO1)N1CCN(C(=O)C23CC4CC(CC(C4)C2)C3)CC1 (stereo unspecified)	.	.	1.1	.	12	14	2.7	i	.
Cc1cc(NC(=O)CSc2nc3ccsc3c(=O)n2CCCC(=O)NCCc2ccccc2)no1	-7	0.75	-1.8	-1.0	12	8	3.4	i	.
CSc1nsc(SCC(=O)NCc2ccccc2)n1	2	0.65	0.8	0.6	4	7	-1.6	i	-8
C=CCn1c(=N)n(CC(=O)c2cccc([N+](=O)[O-])c2)c2ccccc21	-9	0.7	0.2	0.8	8	3	-1.3	i	.
COc1ccc2c(C(=O)CN3CC(C)OC(C)C3)c[nH]c2c1 (stereo unspecified)	0	0.75	7.2	1.2	.	.	.	.	-6
CCSc1nc2sc3c(c2c(=O)n1-c1ccccc1)CCN(C)C3	20	0.68	9.8	-6.8	-3	-1	1.4	i	-11
Cc1c(SCCO)c(=O)[nH]c2cc3c(cc12)OCO3	-14	0.72	-0.3	-174	29	23	-4.4	i	-3
CCOC(=O)Cc1ncccc1C(=O)Nc1ccc(OC(F)(F)F)cc1	7	0.71	4.9	3.2	-2	2	-0.8	i	5
COCCN(C(=O)CSCC(=O)Nc1ccc(C)cc1)c1c(N)n(CC(C)C)c(=O)[nH]c1=O	-1	0.63	0.3	-1.8	14	11	0.6	i	-9
Cc1ccccc1NS(=O)(=O)c1nnc(NC(=O)C(C)C)s1	-1	0.67	-2.7	3.8	-4	-1	0.9	i	.

Source: PubChem BioAssay (several laboratories)
